ALR inh = human ALR oxidase inhibition via reduced H2O2; AID 485317; actives 3.8% (n = 290,000); inhibition, % (no concentration beside the values); P55789; purified ALR, DTT oxidation, H2O2 HRP-luminol luminescence;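 active means mean and each replicate at 75% or more; inconclusive means only one of the two met; inactive means neither met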;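 further: stock transfer was 7.5 nL into about 7.5 µL; 0% = neutral wells and 100% = wells with inactivated enzyme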
Target sequence (P55789 whole entry, looked up): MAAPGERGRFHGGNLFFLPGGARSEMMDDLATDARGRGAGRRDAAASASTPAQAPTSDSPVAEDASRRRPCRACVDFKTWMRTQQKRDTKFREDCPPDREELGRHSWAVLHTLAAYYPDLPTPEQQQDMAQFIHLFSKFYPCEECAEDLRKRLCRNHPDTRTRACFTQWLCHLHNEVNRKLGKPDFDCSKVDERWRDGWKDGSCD
LANA-H2B inh = blocks KSHV LANA binding to histone H2A/H2B. Q9QR71. cell-free LANA-H2A/H2B peptide, fluorescence polarization. AID 2629. actives 0.6% (n = 320,000). inhibition, % (concentration not given with the values); in the data active means inhibition mostly above about 10%, no sharp cut-off; inactive means mostly below about 6.7%;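 further: stock transfer was 7.5 nL into about 10 µL; 0% = median of vehicle wells and 100% = median of positive control wells; one replicate is shown; the record names a cut of 25% in any replicate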
HNF4A DNA FP = change in binding of human HNF4 alpha to DNA; P41235; HNF4a-FITC DNA binding, fluorescence polarization, 1 h; activity change, % at 10 µM; actives 0.3% (n = 360,000); in the data active means activity change above about 30%, passing the limit was not always enough;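 further: controls were the assay level and a saturating level of protein; the project sought stronger binding though the title names inhibitors; some compounds called inactive have numbers as strong as hits; positive values seem to mean higher polarization but the record does not say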
Target sequence (P41235 whole entry, looked up): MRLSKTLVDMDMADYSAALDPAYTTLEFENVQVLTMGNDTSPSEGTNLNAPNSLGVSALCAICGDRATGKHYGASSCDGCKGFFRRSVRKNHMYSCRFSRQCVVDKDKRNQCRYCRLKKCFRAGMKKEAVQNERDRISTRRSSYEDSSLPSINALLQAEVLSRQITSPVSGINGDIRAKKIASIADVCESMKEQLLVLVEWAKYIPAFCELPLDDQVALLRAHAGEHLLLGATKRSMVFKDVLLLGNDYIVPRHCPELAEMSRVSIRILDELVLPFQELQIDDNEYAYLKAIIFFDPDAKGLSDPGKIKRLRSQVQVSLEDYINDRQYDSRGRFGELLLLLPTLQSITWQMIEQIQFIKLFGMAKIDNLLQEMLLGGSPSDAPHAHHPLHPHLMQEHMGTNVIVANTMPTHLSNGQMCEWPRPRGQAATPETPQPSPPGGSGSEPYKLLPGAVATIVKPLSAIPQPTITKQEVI
Vif A3G = inhibitors of Vif binding to APOBEC3G peptide, primary screen, biochemical, TR-FRET, GST-Vif 1-94, biotin-A3G peptide, dose response retest (AID 1117319); TR-FRET GST-Vif / biotin-A3G peptide binding; higher % means a stronger effect; test concentration not given here; strong numbers were not always called active; one-dose inhibition, %; IC50 in µM for titrated hits; actives 0.57% (n = 260,000);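 active means above the screen mean plus three standard deviations and confirmed in dose response; inconclusive means results disagree or hit not tested in dose response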;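 further: Vif residues 1-94 fused to GST binding biotinylated APOBEC3G peptide 110-148; 0% = full assay without inhibitor and 100% = GST in place of GST-Vif; retest series ran down from 100 µM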
Calb FLC = C. albicans growth modulation with fluconazole; growth inhibition, % (no concentration beside the values); actives 0.57% (n = 300,000); C. albicans CaCi-2 (fluconazole-resistant clinical isolate) + fluconazole, Alamar Blue growth, 48 h;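 active means most replicates above 75%; inconclusive means exactly half above 75%; inactive means most below 75%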;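 further: all wells also contain fluconazole at 8 µg/ml as a sub-toxic cotreatment; 0% = median of DMSO wells and 100% = median of geldanamycin control wells; wells of about 8 µL received 7.5 nL stock; the first replicate is given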
RanGTP-Imp inh = inhibitors of RanGTP-importin-beta interaction, primary screen, biochemical, FRET, CFP-Ran, YFP-importin-beta, homogeneous; cell-free CFP-Ran/YFP-importin-beta FRET ratio; inhibition, % (test concentration not listed); actives 1.1% (n = 300,000); AID 2216;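 active means most replicates above 15%; inconclusive means exactly half above 15%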;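 further: 0% = DMSO wells and 100% = Ran loaded with GDP instead of GTP; wells of about 40 µL received 100 nL stock; the first replicate is given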
Beta2AR agonist = agonists of human beta-2 adrenergic receptor inducing internalization. Am2.2-beta2AR cells, FAP receptor internalization, flow cytometry; reference of the scale not given here. response, % (test concentration not listed). actives 0.43% (n = 340,000). AID 504454;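 active means response above a set limit, near 3 SD of response in nonfluorescent compounds, cut at about 42% in these data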;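 further: stock transfer was 100 nL into about 11 µL; a reference agonist was the positive control; negative values mostly stem from fluorescent compounds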
Target sequence (P07550 whole entry, looked up): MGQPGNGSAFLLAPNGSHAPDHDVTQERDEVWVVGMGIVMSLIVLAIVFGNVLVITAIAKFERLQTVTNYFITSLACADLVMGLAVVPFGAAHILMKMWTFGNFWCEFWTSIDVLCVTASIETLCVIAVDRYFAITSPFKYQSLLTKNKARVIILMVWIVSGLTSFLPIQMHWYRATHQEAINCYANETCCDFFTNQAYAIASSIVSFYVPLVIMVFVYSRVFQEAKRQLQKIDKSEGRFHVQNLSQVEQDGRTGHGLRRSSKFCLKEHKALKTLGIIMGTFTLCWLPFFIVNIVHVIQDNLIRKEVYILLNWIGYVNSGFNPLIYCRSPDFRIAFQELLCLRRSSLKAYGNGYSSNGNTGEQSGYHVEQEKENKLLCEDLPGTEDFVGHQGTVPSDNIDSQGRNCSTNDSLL
Active calls of the source: *; ? = inconclusive; . = not tested or not shown; & = joins results of further samples.

1	Cc1ccc(CN(C(=O)c2cc(=O)c3cc(Cl)c(C)cc3o2)C2CCS(=O)(=O)C2)cc1 (stereo not given)
2	CCCN(Cc1cc2cc(OC)ccc2[nH]c1=O)C(=O)c1ccco1
3	CCCCNC(=O)CCn1c(=O)c2ccccc2n(Cc2cc(C)ccc2C)c1=O
4	COc1cc(C(=O)Nc2ccc(NC(=O)c3ccccc3Cl)nc2)cc(OC)c1OC
5	CCN(CC)CCCn1c(C)cc2c(c1=O)C(c1cc(OC)c(OC)cc1OC)C(C#N)=C(N)O2 (stereo not given)
6	CCOC(=O)c1c(NC(=O)CSc2nc3cccnc3n2C)sc(C(C)=O)c1C
7	COc1cc(C2NC(=O)NC(c3ccccc3)=C2C(C)=O)ccc1OCC(=O)O (stereo not given)
8	CCCc1cc(=O)[nH]c(SCC(=O)NCc2ccc3c(c2)OCO3)n1

compound no.,1,2,3,4,5,6,7,8
HNF4A DNA FP,-4.0,0.2,0.8,-2.7,-0.3,6.5,-3.0,-3.2
Calb FLC,13,-10,5,0,6,-4,4,-7
RanGTP-Imp inh,1.9,-0.1,2.5,1.7,2.2,-2.1,-3.5,2.9
ALR inh,1,-29,-1,3,5,-21,-3,3
Vif A3G,-1%&-7%,2%,-5%,6%,8%,-3%,24%,.
Beta2AR agonist,-19,11,-3,19,-3,1,-11,1
LANA-H2B inh,4.5,-3.5,3.2,-3.2,7.3,-45,-1.9,2.1

9	CC(=O)Nc1ccccc1NC(=O)C/C(C)=N/NC(=O)c1ccc([N+](=O)[O-])c(Cl)c1
10	CNC(=O)COC(=O)/C=C/c1ccc(F)cc1
11	Cc1cccc(Cn2nc(C(C)(C)C)cc2C(=O)Nc2ccc(F)cc2)c1
12	O=C(Nc1ccccc1)NC1(C(=O)N2CCN(C(=O)c3ccco3)CC2)CCCCC1
13	CCCCC[C@H]1CN(CCCC)C(=O)[C@@H]1CC(=O)NCc1ccccc1
14	COc1cccc(NC(=O)C(C#N)Cc2ccncc2)c1 (stereo not given)
15	O=C(Nc1ccccc1)N(Cc1cccs1)C1CCCC1
16	COc1ccc(NC(=O)N(C)C[C@H]2Oc3c(NC(=O)Nc4c(C)noc4C)cccc3C(=O)N([C@H](C)CO)C[C@@H]2C)cc1

compound no.,9,10,11,12,13,14,15,16
HNF4A DNA FP,1.0,2.6,0.4,-1.6,2.1,-2.0,-0.2,-0.8
Calb FLC,-2,-3,-3,-10,6,-12,-26,.
RanGTP-Imp inh,-5.4,-3.6,-0.7,-1.3,-3.9,-1.0,4.4,.
ALR inh,-6,-4,1,3,-9,53,0,.
Vif A3G,3%,-2%,?,11%,.,9%,-1%,13%
Beta2AR agonist,8,5,36,4,-1,-3,-9,-1
LANA-H2B inh,-1.0,1.4,-1.0,-0.6,1.1,1.4,-2.8,.

17	O=C(O)c1cc2cccc(S(=O)(=O)N3CCOCC3)c2cc1O
18	NNC(=O)CSc1ncc(-c2ccccc2)[nH]1
19	COC(=O)Cc1ccc(NC(=S)NCc2ccc(S(N)(=O)=O)cc2)cc1
20	CN(C)c1ccc(C(C#N)c2ccccc2)nn1 (stereo not given)
21	CCN(CC(=O)Nc1ccccc1OC)C(=O)COc1ccc(C#N)cc1
22	COc1ccc(C2=NS(=O)(=O)N(C)C(C(=O)NC3CCCCC3)=C2)cc1OC
23	O=c1[nH]c(=O)n(Cc2ccco2)c2c1C(C(F)(F)F)(C(F)(F)F)N=C(CCC1CCCCC1)N2
24	CC(=O)c1ccc(NC(=O)CSC(C)C)cc1

compound no.,17,18,19,20,21,22,23,24
HNF4A DNA FP,-2.0,-2.8,-1.6,1.6,-4.2,-0.4,-2.5,3.4
Calb FLC,17,-4,7,-12,.,-4,-30,6
RanGTP-Imp inh,-6.1,-1.0,-1.3,-2.9,.,1.1,-2.9,-0.3
ALR inh,-10,36,3,20,.,1,2,21
Vif A3G,38µM*,0%,4%,-1%,1%,.,-3%,30%
Beta2AR agonist,-9,-2,6,-5,-4,10,5,-10
LANA-H2B inh,-0.8,-1.6,-3.5,2.7,.,1.5,-0.4,-1.5

25	COc1ccc(CCNC(=O)CSc2nc3[nH]ncc3c(=O)n2-c2ccc(Cl)cc2Cl)cc1OC
26	O=C1NC(=O)C(=Cc2ccccc2[N+](=O)[O-])S1
27	Cc1ccc(N2CCN(C3=NC(=O)/C(=C\c4cn[nH]c4-c4ccccc4)S3)CC2)cc1
28	COc1cccc(C(=O)COc2ccccc2N2C(=O)C3C4C=CC(C4)C3C2=O)c1 (stereo not given)
29	COC(=O)c1ccccc1-c1ccc(/C=N/Nc2nc(N3CCCC3)nc(N3CCCC3)n2)o1
30	Nc1cc(N)nc(SCCOc2ccccc2)n1
31	Cc1nnc(SCC(=O)NNC(=O)C(C)C)[nH]c1=O
32	COc1ccc(Nc2c3c(nc4ccccc24)CCCC3)cc1OC

compound no.,25,26,27,28,29,30,31,32
HNF4A DNA FP,1.9,-2.8,0.4,3.1,0.5,-0.4,0.8,2.0
Calb FLC,8,.,59,0,3,3,3,10
RanGTP-Imp inh,1.2,.,2.1,2.3,3.5,0.5,6.8,?
ALR inh,6,.,-1,-7,.,-8,.,99*
Vif A3G,.,-7%,.,-2%,-3%,8%,.,3%
Beta2AR agonist,1,12,12,0,20,5,5,-8
LANA-H2B inh,-9.6,.,0.6,-5.2,8.1,2.7,-3.5,0.4

33	CC(C)OC(=O)c1c(N)n(CCCN2CCOCC2)c2nc3ccccc3nc12
34	Cc1cc(C)c2c(c1)/C(=C/C(=O)c1ccc(Br)s1)C(=O)N2
35	CC(C)(C)c1nnc(NC(=O)Nc2ccc(Cl)cc2)s1
36	Cc1ccc(Cl)cc1N1CCN(C(=O)Cc2c(C(=O)O)[nH]c3ccc(Cl)cc23)CC1
37	Brc1ccsc1-c1csc(-c2ccncc2)n1
38	Cc1cccc(C)c1NC(=O)CN1N=NC2C(=O)N(c3cccc(Cl)c3)C(=O)C21 (stereo not given)
39	Cc1ccnc(NC(=O)c2cccc([N+](=O)[O-])c2C)c1
40	CCCOC1CCCN(C(=O)CCc2nnc(-c3ccc4c(c3)OCO4)o2)C1 (stereo not given)

compound no.,33,34,35,36,37,38,39,40
HNF4A DNA FP,-2.5,1.3,-0.7,-4.7,3.3,5.6,2.1,-0.8
Calb FLC,-6,?,-7,37,2,4,7,24
RanGTP-Imp inh,25*,?,-6.1,-2.5,-4.6,0.9,-0.2,1.9
ALR inh,-9,-11,-16,62,-6,8,-7,-2
Vif A3G,-4%,7%,3%,.,-13%,.,15%,.
Beta2AR agonist,-4,65*,7,75*,-9,1,0,-12
LANA-H2B inh,7.7,0.4,-5.7,1.3,5.0,-3.6,-1.9,3.8

Profiles, looked up by structure.
Cc1cccc(C)c1NC(=O)CN1N=NC2C(=O)N(c3cccc(Cl)c3)C(=O)C21 (stereo not given) as listed: HNF4A DNA FP: 5.6; Calb FLC: 4; RanGTP-Imp inh: 0.9; ALR inh: 8; Vif A3G: .; Beta2AR agonist: 1; LANA-H2B inh: -3.6
CCCCNC(=O)CCn1c(=O)c2ccccc2n(Cc2cc(C)ccc2C)c1=O as listed: HNF4A DNA FP: 0.8; Calb FLC: 5; RanGTP-Imp inh: 2.5; ALR inh: -1; Vif A3G: -5%; Beta2AR agonist: -3; LANA-H2B inh: 3.2

Next entries.
41	Cc1ccc(S(=O)(=O)Nc2cccc(Cl)c2)cc1NC(=O)c1cccnc1
42	Cc1cccc(CC(C)NC(=O)CCc2nnc(-c3ccccc3)o2)n1 (stereo not given)
43	O=C(N1CCCC1)C12CC3CCC(CC(C3)C1)C2
44	COc1ccccc1NC(=O)C12CCC(C)(C(=O)C1)C2(C)C (stereo not given)
45	CN1CCN(c2ccc([N+](=O)[O-])c(Sc3nc4ccccc4[nH]3)c2)CC1
46	Cc1cccc(C)c1OCC(=O)Nc1ccncc1
47	C=CC[n+]1c(/C=C/c2ccc(OC(C)=O)c(OC)c2)ccc2ccccc21
48	COc1ccc(OC)c(S(=O)(=O)N(C)CC(=O)N2CCOCC2)c1

compound no.,41,42,43,44,45,46,47,48
HNF4A DNA FP,5.2,0.3,0.8,-2.2,2.6,-2.4,4.3,3.8
Calb FLC,-21,-4,-21,14,4,1,-3,14
RanGTP-Imp inh,62*,2.3,4.4,-2.1,-2.1,-2.0,-6.4,-1.7
ALR inh,.,.,-8,-11,-12,-8,.,-4
Vif A3G,0%,-2%,.,6%,7%,6%,.,.
Beta2AR agonist,5,4,1,1,-13,-3,8,1
LANA-H2B inh,.,2.5,-2.7,-0.2,-4.1,2.1,-3.0,0.9

Individual results from above:
HNF4A DNA FP with Cc1cccc(C)c1OCC(=O)Nc1ccncc1 → -2.4
LANA-H2B inh with COc1ccc(OC)c(S(=O)(=O)N(C)CC(=O)N2CCOCC2)c1 → 0.9
Beta2AR agonist with C=CC[n+]1c(/C=C/c2ccc(OC(C)=O)c(OC)c2)ccc2ccccc21 → 8

Three of the compounds above, with two lines to a compound:
Below each compound: HNF4A DNA FP	Calb FLC	RanGTP-Imp inh	ALR inh	Vif A3G	Beta2AR agonist	LANA-H2B inh
[43] O=C(N1CCCC1)C12CC3CCC(CC(C3)C1)C2
→ 0.8	-21	4.4	-8	.	1	-2.7
[47] C=CC[n+]1c(/C=C/c2ccc(OC(C)=O)c(OC)c2)ccc2ccccc21
→ 4.3	-3	-6.4	.	.	8	-3.0
[44] COc1ccccc1NC(=O)C12CCC(C)(C(=O)C1)C2(C)C (stereo not given)
→ -2.2	14	-2.1	-11	6%	1	-0.2

(cont.)
49	Cc1ccc(S(=O)(=O)N2CCC(=O)N(C(COCc3ccccc3)C(C)C)CC2)cc1 (stereo not given)
50	CC(C)c1ccc(NC(=O)Cc2cn(C)c3ccccc23)cc1
51	CN(C(=O)c1ccco1)c1nnc(-c2ccc(F)cc2)s1
52	O=C(COC(=O)c1ncc(Cl)c(Cl)c1Cl)NCc1ccccc1
53	CN(C)CC(C)(C)CNc1ccc(S(=O)(=O)N2CCCC2)cn1
54	COc1ccc(C=CC(=O)c2ccc([N+](=O)[O-])cc2)cc1
55	COc1ccc2c(/C=C/c3cc[n+](C)cc3)c[nH]c2c1
56	C=CCc1ccccc1OCCNCc1ccccc1

compound no.,49,50,51,52,53,54,55,56
HNF4A DNA FP,-6.9,3.0,0.2,1.2,6.3,4.5,36*,-2.9
Calb FLC,10,114*,6,.,.,.,0,-4
RanGTP-Imp inh,1.3,?,0.5,.,.,.,-15,-1.7
ALR inh,-1,-3,2,-3,1,.,-6,-11
Vif A3G,5%,5%,.,-8%,-6%,-3%,-6%,7%
Beta2AR agonist,-3,27,16,0,-2,2,-238,-9
LANA-H2B inh,-2.8,-1.5,-1.0,-1.0,4.0,.,4.2,-2.5

57	COC(=O)C1C(OC)=CC(=O)C2CCCCC21 (stereo not given)
58	O=C(O)CC1c2ccccc2C=Cc2ccccc21
59	O=C(Nc1ccccc1N1CCCC1)C1CCN(S(=O)(=O)c2ccccc2)CC1
60	CCOC(=O)c1cc(-c2cccnc2)nn1-c1ccccc1C
61	Cc1[nH]n2c(=O)c3c(nc2c1-c1ccc(F)cc1)CCCC3
62	Cc1nnc(SCC(=O)N2CCCC2)n(N)c1=O
63	COc1ccccc1N1CCN(S(=O)(=O)CCNC(=O)CC2CCCCC2)CC1
64	CC(C)Nc1nc(C#N)nc(NC(C)C)n1

compound no.,57,58,59,60,61,62,63,64
HNF4A DNA FP,2.2,2.4,-0.4,-4.5,2.8,0.3,1.5,0.3
Calb FLC,.,-8,-5,2,-13,3,-3,12
RanGTP-Imp inh,.,?,1.8,6.8,2.6,-3.1,1.6,2.9
ALR inh,.,-3,38,-8,3,.,5,-3
Vif A3G,0%,.,-2%,-1%,.,7%,5%,-2%
Beta2AR agonist,-9,1,.,18,-6,-7,0,3
LANA-H2B inh,.,2.5,0.4,-7.3,2.0,8.1,7.1,3.0

An unsorted share of the library; any-hit rate near 6.3%.
